Compound activity from PubChem BioAssay.
Choline anaer gr = choline-fed anaerobic bacterial growth inhibition. Gram-negative bacterium anaerobic choline minimal medium, absorbance growth; stronger effect = lower value; many inactives read as strong as hits in the columns shown. calls only. actives 0.2% (n = 55,000). AID 1963822;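 active = growth z-score on choline under -2 at 7 or 20 h with little or no fall on glycerol, limits in tiers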;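 also: stock transfer was 300 nL into about 50 µL; the organism is E. coli; final concentration not given here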
Choline anaer gr early = further read-out of Choline anaer gr, marked with its call; z-score; measured here: choline growth z-score, timepoint 1;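 score of optical density at 7 h as mean of two plates; lower means less growth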
Numbers without * were called inactive; i = inactive; & = joins results of further samples. A portion of the library; the hit share may differ from the screen's.

Second line of a record – Choline anaer gr early | Choline anaer gr
COc1ccc(C2CC(=O)C3=C(C2)Nc2onc(C)c2C3c2ccccc2F)cc1OC (stereo not given)
 : 0.1 | i
O=C1COc2ccc(S(=O)(=O)N3CCN(C(=O)NCCc4ccccc4)CC3)cc2N1
 : -0.51 | i
O=C(C1CCN(c2cncnc2N2CCCCC2)CC1)N1CCCC1
 : 0.85 | i
COc1ccc(-n2ccn3c(CCC(=O)NCCc4c[nH]c5ccccc45)nnc3c2=O)cc1
 : 0.72 | i
CC1(C(=O)NC2CCCCC2)Cc2ccccc2C(=O)N1CCc1ccccc1 (stereo not given)
 : 0.43 | i
O=c1[nH]c(SCc2cccc(F)c2)nc2c1CN(Cc1ccccc1)CC2
 : -1.65 | i
CCC(C)Nc1c(-c2ccc(C)cc2)c(=O)c1=O (stereo not given)
 : -0.42 | i
COc1cc(CNCCc2c[nH]c3ccccc23)ccc1OCc1ccc2c(c1)n(C)c(=O)n2C
 : 0.03 | i
CCOC(=O)c1c(NC(C)=O)oc2cccnc12
 : -0.53 | i
Cn1c(=O)oc2cc(S(=O)(=O)N3CCN(C(=O)C4CC4)CC3)ccc21
 : -0.05 | i
CC(C)(C)c1ccc2c(c1)N(CC(=O)Nc1cccc3nsnc13)C(=O)CO2
 : 1.52 | i
COc1ccc2nc(-n3nc(C)c4c3NC(=O)CC4c3cnn(C)c3C)sc2c1 (stereo not given)
 : 2.52 | i
Cc1[nH]c(C(=O)N2CCCC(C(=O)NCCCN3CCOCC3)C2)c(C)c1C (stereo not given)
 : 0.32 | i
NS(=O)(=O)c1ccc2nc(NC(=O)CCC3CCCCC3)sc2c1
 : 1.44 | i
O=C(CCCCCCC(=O)Nc1ccccc1)NO
 : 0.28&0.36 | i
CCOc1ccc(-c2ccc(SCc3nc(-c4ccc5c(c4)OCO5)no3)nn2)cc1
 : -1.02 | i
CC1CCN(C(=O)Cn2c(=O)c3ccccc3n3c(=S)sc(-c4ccccc4F)c23)CC1
 : -0.31 | i
Cc1ccc(OCC(=O)NCC(=O)OCc2cc(=O)n3nc(C)sc3n2)cc1
 : 1.18 | i
Cc1ccc2ncc(S(=O)(=O)c3ccccc3)c(N3CCCCC3C)c2c1 (stereo not given)
 : 0.1 | i
CC(C)C(=O)NCCC1CCN(C(=O)NC2CCCCC2)CC1
 : 0.1 | i
O=C(NCCc1c[nH]c2ccccc12)c1cc(S(=O)(=O)N2CCSCC2)ccc1Cl
 : 0.25 | i
O=C(Cc1ccc(NC(=O)N2CCCCc3ccccc32)cc1)Nc1ccc(Cl)cc1
 : 1.02 | i
Cc1c(C(=O)N2CCN(Cc3ccccc3)CC2)sc2ncnc(N3CCN(c4ccccn4)CC3)c12
 : 0.4 | i
O=c1cc(CN2CCc3ccccc3C2)nc2nc(-c3ccc(Cl)cc3)[nH]n12
 : 0.79 | i
Cc1ccc(NCc2cc(=O)n3[nH]c(NCc4ccc(C(C)C)cc4)nc3n2)cc1C
 : 1.26 | i
O=C(NCc1nnc2n1CCCC2)c1cccs1
 : -1.51 | i
Cc1c(C)n(-c2cc(F)cc(F)c2)c2ncnc(Nc3ccc(F)c(F)c3)c12
 : 0.89 | i
Cc1ccc(CNC(=O)CC2CCN(C(=O)c3[nH]c(C)c(C(=O)OC(C)C)c3C)CC2)cc1
 : -0.15 | i
O=C(C1CCCCC1)N1CCN=C1N1CCCC1
 : -0.17 | i
O=C(C1CC(=O)N(c2ccccc2)C1)N1CCC(c2nc(-c3ccccc3)no2)CC1 (stereo not given)
 : -0.65 | i

Ordered by value in Choline anaer gr early (high to low): some entries from above
molecule	Choline anaer gr early
COc1ccc2nc(-n3nc(C)c4c3NC(=O)CC4c3cnn(C)c3C)sc2c1 (stereo not given)	2.52
Cc1ccc(NCc2cc(=O)n3[nH]c(NCc4ccc(C(C)C)cc4)nc3n2)cc1C	1.26
O=c1cc(CN2CCc3ccccc3C2)nc2nc(-c3ccc(Cl)cc3)[nH]n12	0.79
CC1(C(=O)NC2CCCCC2)Cc2ccccc2C(=O)N1CCc1ccccc1 (stereo not given)	0.43
Cc1c(C(=O)N2CCN(Cc3ccccc3)CC2)sc2ncnc(N3CCN(c4ccccn4)CC3)c12	0.4
O=C(C1CCCCC1)N1CCN=C1N1CCCC1	-0.17
CCC(C)Nc1c(-c2ccc(C)cc2)c(=O)c1=O (stereo not given)	-0.42

Additional records.
Second line of a record – Choline anaer gr early | Choline anaer gr
Cc1nc2ncccc2c(=O)n1-c1ccc(F)c(NC(=O)c2cc(Br)ccc2Cl)c1
 : -0.69 | i
O=c1c2cn[nH]c2nc(SCc2nc(-c3ccc4c(c3)OCO4)no2)n1-c1ccc(F)c(F)c1
 : -1.13 | i
COc1ccc(C2CC(=O)C3=C(C2)Nc2nnnn2C3c2ccc(C)cc2)cc1 (stereo not given)
 : -0.48 | i
CCCCC(=O)Nc1ccc(N2CCN(C(C)=O)CC2)c(C(=O)O)c1
 : -0.85 | i
CCN1CCN(Cc2nc(-c3ccc(N4CCSCC4)nc3)no2)CC1
 : -1.97 | i
CN(Cc1ccsc1)C(=O)C1CCCO1 (stereo not given)
 : -1.25 | i
O=S1(=O)N=CNc2ccc(S(=O)(=O)Nc3ccc(OCc4ccccc4)cc3)cc21
 : 0.53 | i
Cc1ccc(-c2csc3ncnc(NC4CCCCC4)c23)cc1
 : 0.67 | i
CCC1Oc2cc(S(=O)(=O)N3CCCC(C(=O)NC4CCCC4)C3)c(C)cc2NC1=O (stereo not given)
 : -1.03 | i
CCCC1Oc2ccc(Cl)cc2NC1=O (stereo not given)
 : 1.01 | i
O=C(NCC(c1ccco1)N1CCCC1)c1ccc(Br)o1 (stereo not given)
 : 0.33 | i
CCCCCCNCc1ccc2c(c1)n(C)c(=O)n2C
 : -0.36 | i
N#CC1=CN(c2ccc(I)cc2)c2cc(F)ccc2S1(=O)=O
 : 0.05 | i
CCOc1ccc(-c2cc(C(=O)Oc3cccc(Br)c3)no2)cc1
 : -1.01 | i
CC(C)Nc1ccc2nnc(C3CCC3)n2n1
 : -0.21 | i
COc1nc2ccccc2nc1N1CCCC(C(=O)N2CCC(C)CC2)C1 (stereo not given)
 : -0.85 | i
O=c1n(Cc2ccc(F)cc2)nc2c(S(=O)(=O)N3CCN(c4ccc(F)cc4)CC3)cccn12
 : 0.42 | i
CCCn1c(=O)c2sccc2n2c(CCC(=O)N3CCN(c4ccccn4)CC3)nnc12
 : -0.22 | i
O=C(NCC1CCCO1)c1cn(-c2ccccc2)nc1-c1ccccc1 (stereo not given)
 : 0.35 | i
Cc1ccc2c(c1)Oc1ccc(S(=O)(=O)N3CCc4ccccc4C3)cc1C(=O)N2
 : 0.4 | i
CC(/C=C/c1cccc(Oc2ccc(F)cc2)c1)N(O)C(N)=O (stereo not given)
 : 0.55&0.55&0.56 | i
CCOC(=O)CNC(=O)N1CCCC1c1c(C)noc1CC (stereo not given)
 : -0.29 | i
Cn1nc(C(=O)Nc2ccccc2Br)cc1C(F)(F)F
 : -1.27 | i
CNC(=O)CN1C(=O)CSc2ccc(C(=O)N3CCCC3)cc21
 : 0.3 | i
CCC(C)(C)NC(=O)CN1C(=O)CCc2cc(S(=O)(=O)N3CCCCC3C)ccc21 (stereo not given)
 : -0.6 | i
Clc1ccc(-c2noc(-c3cc(N4CCCC4)nc4ccccc34)n2)cc1
 : -0.65 | i
CN(C)CCOC(=O)c1sc2ccccc2c1Cl
 : -1.35 | i
CCc1ccc(NC(=O)NCc2cc(=O)n3nc(-c4ccccc4)sc3n2)cc1
 : -0.79 | i
O=C(c1ccc(S(=O)(=O)N2CCOCC2)cc1)N(c1ccc(Cl)cc1)C1C=CS(=O)(=O)C1 (stereo not given)
 : 0.73 | i
O=C(NCc1cccnc1)C1=Cc2ccccc2OC1
 : -0.49 | i
Cc1csc(-c2cc(S(=O)(=O)N3CCN(C(C)C)CC3)cn2CC(=O)N2CCCCC2)n1
 : -0.2 | i
CCOc1ccc2nc(N3CCC(C(=O)Nc4ccc(OC)c(OC)c4)CC3)sc2c1
 : 0.17 | i
Cc1nc(OCC(=O)NC2CCS(=O)(=O)C2)c2c(-c3cccc(F)c3)noc2n1 (stereo not given)
 : 0.75 | i
CC(=O)N1CCCc2cc(S(=O)(=O)N3CCC(C(=O)N4CCC(N5CCCCC5)CC4)CC3)ccc21
 : 2.59 | i
Cc1ccc(C(=O)C(C)n2c(=O)n3nc(-c4cccc(F)c4)nc3c3ccccc32)cc1C (stereo not given)
 : -0.68 | i
CC(C)CCNC(=O)C1CCCN(S(=O)(=O)c2ccc3nc(-c4ccccc4)[nH]c3c2)C1 (stereo not given)
 : -0.31 | i
COC(=O)c1cc(=O)[nH]c2ccccc12
 : -1.11 | i
COC(=O)C(OC(=O)c1cnn2c(C(F)(F)F)cc(-c3ccccc3)nc12)c1ccccc1 (stereo not given)
 : 0.87 | i
CCOc1ccc(NC(=O)C2CCCN(C(=O)c3cc(C)cc(C)c3)C2)cc1 (stereo not given)
 : 0.72 | i
CN1CCN(C(=O)C2(C)CC(c3ccccc3)=NO2)CC1 (stereo not given)
 : -1.17 | i
CC(C)n1c(=O)[nH]c2cc(-c3noc(CN4C(=O)COc5ccccc54)n3)ccc21
 : -0.67 | i
COc1ccc(-c2cc(C(=O)N3CCN(S(=O)(=O)c4ccc(C(C)(C)C)cc4)CC3)[nH]n2)cc1
 : 0.2 | i
CCOC(=O)c1c(C)c(C(=O)NCCc2ccc(S(N)(=O)=O)cc2)c(C)n1CC
 : 0.47 | i
CCCc1cc(=O)n2nc(N3CCCC3C(=O)NCc3ccc(OC)cc3)sc2n1 (stereo not given)
 : 0.7 | i
Cc1nn2c(S(=O)(=O)N3CCC(C)CC3)c(C)nc2s1
 : 0.19 | i
CCCCCCNC(=O)c1cncc(-c2ccc(C)cc2)c1
 : 1.41 | i
O=C1CC(C(=O)c2ccc(Br)cc2)c2c(n[nH]c2-c2ccccc2)N1 (stereo not given)
 : 0.05 | i
Cc1c(C(=O)N(Cc2ccc(Cl)cc2)CC2CCCO2)oc2ccc(F)cc12 (stereo not given)
 : 2.36 | i
Cc1ccc(S(=O)(=O)N2C(=O)CCC2C(=O)N2CCCC2)cc1 (stereo not given)
 : 0.94 | i
CC(=O)Nc1ccc(S(=O)(=O)N2CCN(Cc3nc4cccnc4n3-c3ccc(C)cc3)CC2)cc1
 : -0.17 | i

New compounds follow
Second line of a record – Choline anaer gr early | Choline anaer gr
Cc1ccc(CN2C(=O)C3CCCCC3C2=O)cc1S(=O)(=O)Nc1ccc(Cl)cn1 (stereo not given)
 : 1 | i
Cc1cccc2cc3c(nc12)N(C(=O)c1ccccc1Br)CC3
 : 0.39 | i
COc1ccc(C2CC(=O)N(c3ccc4c(c3)OCCO4)C(=O)C2)cc1
 : -0.05 | i
Cc1ccc(S(=O)(=O)N2CCN(C(=O)c3cc(-c4ccccc4)n[nH]3)CC2)cc1
 : 1.74 | i
COc1cc(C2Nc3c(C)cc(C)cc3[C@H]3OCCC[C@@H]23)cc(Cl)c1OC (stereo not given in full)
 : 0.12 | i
O=C(Cn1c(=O)n(-c2ccc(CC(=O)NC3CC3)cc2)c(=O)c2ccccc21)Nc1cccc(F)c1
 : 0.4 | i
C=CCNC(=O)COc1ncnc2onc(-c3ccc(F)cc3)c12
 : -0.37 | i
Cc1oc2ncn(CCC(=O)N3CCOCC3)c(=O)c2c1C
 : -0.94 | i
CCc1cc2c(Nc3cc(Cl)ccc3OC)ncnc2s1
 : 0.51 | i
CCOc1cc2c(cc1OCC)C(C(=O)O)C(c1cc(Br)c(O)c(OC)c1)N(C)C2=O (stereo not given)
 : -0.56 | i
CC1CC(=O)N(CC(=O)N(C)C2CCCCC2)c2cc(S(=O)(=O)N3CCCCC3)ccc2S1 (stereo not given)
 : 1.47 | i
CN(C)CCCNC(=O)c1cc(-c2ccc(Br)cc2)nc2ccccc12
 : -0.47 | i
Cc1ccc(C2CC(c3ccccc3)=NN2c2nc(C)cs2)cc1 (stereo not given)
 : 1.47 | i
Cc1nn2c(CNS(=O)(=O)c3c(C)nn(C)c3C)c(C)nc2s1
 : -1.08 | i
CNC(=O)c1cc(NS(=O)(=O)c2ccc(Cl)cc2)cnc1N1CCNCC1
 : 0.76 | i
Cc1ccc(-c2nc3c(s2)CN(C(=O)C2CC2)CC3)cc1
 : -0.44 | i
Cc1ccc(C)c(N2CCN(C(=O)CC(C)CC3=NS(=O)(=O)c4ccccc4N3)CC2)c1 (stereo not given)
 : -0.76 | i
CNC(=O)N1CCc2cc(S(=O)(=O)N3CCc4ccccc43)ccc21
 : -2.18 | i
CCC(C)Cn1c(COc2ccc(OC)cc2)nc2ccccc21 (stereo not given)
 : -0.47 | i
CCn1nc(C)c2c1c(=O)n(CCc1ccccc1)c(=O)n2CC(=O)NC1CCCC1
 : -0.85 | i
O=C(Cc1csc(NC(=O)Nc2ccccc2)n1)Nc1ccc(Br)cc1
 : -0.6 | i
CC1CCCN(C(=O)CN2C(=O)C3CCCN3C(=O)c3cc(F)ccc32)C1 (stereo not given)
 : 0.05 | i
CCC(=O)Nc1cc2c(cc1SC(C)C)n(C)c(=O)n2C
 : 0.41 | i
COc1ccc(N(Cc2nc3nc(C)cc(=O)n3[nH]2)C(=O)C(C)C)cc1
 : 0.08 | i
CCC(=O)Nc1nc2cc(NC(=O)c3cccnc3)ccc2s1
 : 0.8 | i
CCOC(=O)c1ccc(N2C(=O)c3[nH]nc(-c4ccc(OC)cc4)c3C2c2ccccc2F)cc1 (stereo not given)
 : 1.37 | i
Cc1cc(C)nc(N2CCC(NC(=O)NCc3ccccc3)CC2)n1
 : 0.03 | i
COCc1nc2ccccc2n1C(C)C
 : -0.71 | i

Complete entries as entered above:
Profile of `CCC(=O)Nc1cc2c(cc1SC(C)C)n(C)c(=O)n2C` : Choline anaer gr early: 0.41; Choline anaer gr: i
Profile of `CCOC(=O)c1ccc(N2C(=O)c3[nH]nc(-c4ccc(OC)cc4)c3C2c2ccccc2F)cc1` (stereo not given) : Choline anaer gr early: 1.37; Choline anaer gr: i
